# UCH37 DUB inh = blocks the human deubiquitinase UCH37; Q9Y5K5; purified proteasome/UCH37, Ub-AMC cleavage fluorescence; inhibition, % (no concentration beside the values); actives 0.33% (n = 330,000);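 active means mean of two replicates above 20%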;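 further: 0% = compound-free wells with enzyme and 100% = wells lacking proteasome; stock transfer was 100 nL into about 20 µL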
# Target sequence (Q9Y5K5 whole entry, looked up): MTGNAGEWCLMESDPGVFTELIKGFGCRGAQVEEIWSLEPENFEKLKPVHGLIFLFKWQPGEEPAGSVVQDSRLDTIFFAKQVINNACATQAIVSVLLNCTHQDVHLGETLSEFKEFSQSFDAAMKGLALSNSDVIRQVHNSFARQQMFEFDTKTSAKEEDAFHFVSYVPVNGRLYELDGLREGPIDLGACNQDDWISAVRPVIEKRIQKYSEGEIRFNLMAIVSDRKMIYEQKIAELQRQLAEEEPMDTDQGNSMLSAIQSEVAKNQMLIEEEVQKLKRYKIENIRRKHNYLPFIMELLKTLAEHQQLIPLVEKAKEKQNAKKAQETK
#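 Material: Human UCH37 enzyme supplied as purified proteasome complex | Schedule: 30 min compound-proteasome preincubation then 25 min substrate reaction, room temperature | Detection: AMC fluorescence from Ub-AMC cleavage, excitation 355 nm, emission 460 nm | Benchmarks: Wells without proteasome as full block, compound-free enzyme plus substrate as uninhibited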
# B2AR ag = agonists of human beta-2 adrenergic receptor inducing internalization | P07550 | Am2.2-beta2AR cells, FAP receptor internalization, flow cytometry; reference of the scale not given here | response, % (no concentration beside the values) | actives 0.43% (n = 340,000) | AID 504454;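 active means response above a set limit, near 3 SD of response in nonfluorescent compounds, cut at about 42% in these data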;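 further: stock transfer was 100 nL into about 11 µL; a reference agonist was the positive control; negative values mostly stem from fluorescent compounds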
# Target sequence (P07550 whole entry, looked up): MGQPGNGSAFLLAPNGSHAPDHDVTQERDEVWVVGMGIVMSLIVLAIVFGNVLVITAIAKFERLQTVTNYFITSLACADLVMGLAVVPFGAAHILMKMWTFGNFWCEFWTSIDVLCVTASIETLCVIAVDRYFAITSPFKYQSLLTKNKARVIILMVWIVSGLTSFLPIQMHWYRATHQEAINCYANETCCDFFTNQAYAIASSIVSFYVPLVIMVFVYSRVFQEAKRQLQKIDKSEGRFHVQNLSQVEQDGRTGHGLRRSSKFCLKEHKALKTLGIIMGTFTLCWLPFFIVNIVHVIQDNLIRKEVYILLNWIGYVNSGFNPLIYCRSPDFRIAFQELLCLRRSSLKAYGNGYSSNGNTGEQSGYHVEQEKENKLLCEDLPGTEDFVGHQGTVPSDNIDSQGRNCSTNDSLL
# Bfl-1 A1 inh = inhibitors of the anti-apoptotic protein A1, read as caspase activation. MEF A1-2A-BIM cells, Caspase-Glo 3/7 luminescence, 3 h; percent of clofoctol response, vehicle zero. caspase activation, % (no concentration beside the values). actives 0.066% (n = 330,000);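 active means over half of replicate activation scores above 10%, or exactly half above 10 with the replicate mean above 10; inconclusive means replicate mean below 10 yet half the replicates above 10; inactive means over half of replicates below 10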;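 further: wells of about 30 µL received 50 nL stock; many hits fall short of the cut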
# Calb FLC = C. albicans growth modulation with fluconazole. C. albicans CaCi-2 (fluconazole-resistant clinical isolate) + fluconazole, Alamar Blue growth, 48 h. growth inhibition, % (test concentration not listed). actives 0.57% (n = 300,000);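 active means most replicates above 75%; inconclusive means exactly half above 75%; inactive means most below 75%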;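 further: all wells also contain fluconazole at 8 µg/ml as a sub-toxic cotreatment; 0% = median of DMSO wells and 100% = median of geldanamycin control wells; wells of about 8 µL received 7.5 nL stock; the first replicate is given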
# T cruzi repl = blocks replication of Trypanosoma cruzi; T. cruzi beta-gal in NIH3T3, luminescence, 90 h; inhibition, % (no concentration beside the values); actives 1.4% (n = 300,000); AID 1885;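 active means mean inhibition across valid replicates above about 55%, limit read from the data; inconclusive means mean below that limit but half or more replicates reach it; inactive means mean below it, under half of replicates reach it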;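 further: signal also drops with host cell toxicity which is not excluded here; 0% = plate median of DMSO wells and 100% = zero luminescence signal; higher percent means less beta-gal luminescence so fewer parasites; stock transfer was 50 nL into about 50 µL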
# LANA-H2B inh = blocks KSHV LANA binding to histone H2A/H2B | cell-free LANA-H2A/H2B peptide, fluorescence polarization | inhibition, % (no concentration beside the values) | actives 0.6% (n = 320,000); in the data active means inhibition mostly above about 10%, no sharp cut-off; inactive means mostly below about 6.7%;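 further: stock transfer was 7.5 nL into about 10 µL; 0% = median of vehicle wells and 100% = median of positive control wells; one replicate is shown; the record names a cut of 25% in any replicate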
# Beta apoptosis = beta cell apoptosis inhibition; INS-1E cytokine-induced death, ATP luminescence, 48 h; percent of positive-control rescue, neutral wells zero; protection from apoptosis, % (concentration not given with the values); actives 0.8% (n = 300,000); AID 435005;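 active means all replicates at 75% or more, or half of them and the mean; inconclusive means half reach 75% but not the mean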;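 further: 0% = cytokine-treated negative control wells and 100% = positive control rescue; higher means more ATP so stronger rescue from cytokine killing; wells of about 40 µL received 100 nL stock; the first replicate is given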
# RanGTP-Imp inh = disruptors of Ran-importin-beta complex formation – biochemical, FRET, CFP-Ran, YFP-importin-beta, homogeneous, primary screen; actives 1.1% (n = 300,000); cell-free CFP-Ran/YFP-importin-beta FRET ratio; inhibition, % (no concentration beside the values);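 active means most replicates above 15%; inconclusive means exactly half above 15%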;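 further: 0% = DMSO wells and 100% = Ran loaded with GDP instead of GTP; wells of about 40 µL received 100 nL stock; the first replicate is given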
# * hit, by the source's call; u = inconclusive; x = no result given.
smiles	UCH37 DUB inh	B2AR ag	Bfl-1 A1 inh	Calb FLC	T cruzi repl	LANA-H2B inh	Beta apoptosis	RanGTP-Imp inh
CSC1=N/C(=C\c2ccc(F)cc2)C(=O)S1	1.1	1.8	-0.3	0.7	-28.6	x	2.7	-2.3
CCOC(=O)CSc1nc(COc2ccccc2)nc2ccccc12	3.9	8.2	0.0	1.6	-5.5	2.1	-5.9	-5.7
Cn1cc(S(=O)(=O)Nc2cccc(F)c2)c(=O)n(C)c1=O	5.0	0.0	0.5	0.9	-2.5	3.4	-11.3	-2.2
CCCC[C@H]1COCCS(=O)(=O)N1Cc1ccc(Br)cc1	2.3	0.7	-1.4	19.2	10.6	-2.6	-7.6	-0.1
C(=N\N1CCOCC1)/c1nc(-c2ccccc2)n2ccccc12	x	-5.1	-0.2	17.7	-3.5	-1.1	8.2	2.1
CCCCSc1nc2sc3c(c2c(=O)[nH]1)CC(C)(CC)OC3 (stereo not given)	0.4	-4.4	1.8	-9.3	0.6	2.1	-0.6	3.7
O=C(Nc1cccc(NC(=O)c2cccs2)c1)c1ccc2c(c1)OCCO2	4.2	-16.7	-5.8	-4.4	10.1	-8.0	-6.4	1.4
C/C(CCC1CC(C)OC1=O)=N/Nc1nc(-c2ccccc2)cs1 (stereo not given)	x	4.9	-0.6	14.2	-3.6	0.9	-5.1	0.7
COc1ccc(N2CCN(c3oc(-c4ccc(OC)c(OC)c4)nc3C#N)CC2)cc1	-4.3	0.2	-1.1	0.5	-5.6	0.9	-1.8	1.7
Cc1csc(Nc2nc(N)c(C(=O)Nc3ccccc3)o2)n1	5.3	-0.9	-1.0	4.6	16.1	-0.1	-12.4	4.7
CCOC(=O)c1c(C)nc(-c2ccccc2)nc1N	0.4	8.5	-1.3	-8.8	14.9	5.0	2.7	1.4
CCC(=O)c1cn(CC(=O)Nc2ccc(OC)cc2)c2ccccc12	x	-7.0	-0.7	-1.3	-13.5	7.7	-4.1	8.0
COc1cc(/C=C2\NC(=O)NC2=O)cc(Br)c1OC	6.3	0.1	0.7	10.9	0.7	0.9	-1.5	-4.1
CCN(C(=O)COC(=O)c1cccs1)c1c(N)n(Cc2ccccc2)c(=O)[nH]c1=O	2.6	-3.0	0.6	11.7	-19.2	-1.2	x	4.4
COC(=O)c1ccccc1NC(=S)NC(=O)c1ccc2ccccc2c1	1.3	2.0	-0.7	0.6	-21.1	0.5	-2.7	6.5
O=C1CCC(=O)O1	-0.7	-3.0	0.0	x	x	-70.8	0.6	x
COc1ccccc1C(=O)NCCC(=O)N(Cc1ccco1)Cc1cccs1	0.7	-13.1	0.9	-11.1	12.5	5.1	4.0	7.5
CCCCn1c(N)c(N(CCOC)C(=O)C2CCN(S(=O)(=O)c3ccc(C)c(C)c3)CC2)c(=O)[nH]c1=O	-1.4	-5.6	0.6	1.3	-24.8	3.6	-3.2	-0.7
COc1nc(-c2ccccc2)ccc1-c1noc(-c2cccnc2)n1	-58.9	-25.7	0.1	49.6	18.4	-3.1	-2.5	5.7
Cc1ccc(/C=N/Nc2nnc(Cl)c3ccccc23)cc1	x	-11.0	-5.6	33.2	-13.2	3.2	6.7	-1.8
COc1ccccc1CNC(=O)c1cc2ccccc2o1	2.3	0.0	-0.4	2.0	4.2	3.5	-18.2	0.1
O=C(Nc1ccccc1C(=O)NCCCn1ccnc1)c1ccccc1	1.5	-7.1	-0.6	0.7	-8.0	3.0	-9.3	-0.3
CC1CCN(CCCNS(=O)(=O)c2ccc3c(c2)CCN3C(=O)C2CC2)CC1	1.4	-7.4	1.9	28.6	-0.1	-2.8	-1.3	0.7
CC1CCC2(CC1)NC(=O)N(CC(=O)c1ccc[nH]1)C2=O (stereo not given)	2.1	4.5	1.0	3.5	4.1	-2.3	-0.3	5.3
CCOC(=O)c1cc2c(ccn2C)n1Cc1cc(C)ccc1C	-0.1	2.2	0.5	-5.3	10.4	-3.8	3.3	3.3
Cc1cc(O)c(C(C)C)cc1N=Cc1cc([N+](=O)[O-])ccc1O	6.1	-1.5	-0.8	20.4	-26.9	3.0	-4.0	-1.2
CCN(CC)S(=O)(=O)c1ccc(/C=C/C(=O)N(c2ccccn2)C2CCCCC2)cc1	1.0	2.3	-0.4	-3.9	39.0	4.3	-15.8	-1.3
CCOc1ccc(C(=O)Nc2ccc(CN3CCOCC3)cc2)cc1Cl	4.7	6.0	1.0	-3.9	-0.9	-1.3	x	-2.7
Cc1ccc2cc(C)c(SCC#N)nc2c1	2.6	-0.5	1.2	-5.8	-11.8	-1.6	-7.0	0.5
CCOc1ccccc1NC(=O)C1=C(C)NC(=O)NC1c1cccc(OC)c1OC (stereo not given)	1.3	-2.1	0.3	-14.5	-0.1	1.0	-8.6	0.5
Cc1ccc(-c2nn(-c3ccccc3)cc2C(=O)Nc2ccc(C(=O)O)cc2)cc1	x	-10.4	-0.2	-8.0	14.3	2.4	-2.8	-1.1
CCC(C)c1ccc(OCC(=O)Nc2ccc(Cl)cn2)cc1 (stereo not given)	6.4	-5.5	-0.1	2.5	-9.4	4.8	x	2.7
CCCN1C(=O)/C(=C/c2c(NCCCOC(C)C)nc3c(C)cccn3c2=O)SC1=S	5.1	x	0.0	-2.3	-12.0	-7.3	11.9	-16.7
C=CCc1cccc(/C=N/NC(=O)C[n+]2ccccc2)c1O	x	-1.9	-1.5	59.5	-8.5	4.6	53.7	-1.9
COC(=O)c1ccccc1Sc1snnc1C	1.2	0.1	1.6	u	4.4	10.5	-6.1	-1.8
COc1cccc(/C=C2\Oc3cc(OCC(=O)N4CCCC4)ccc3C2=O)c1OC	10.3	6.2	-0.1	3.2	-11.7	2.1	-6.3	-3.4
CCc1cccc2c(C(=O)CN3C(=O)NC4(CCCCCC4)C3=O)c[nH]c12	3.4	11.2	0.4	x	x	-1.4	42.1	x
O=C(CC1C(=O)NCCN1CC1CCCCC1)NCc1cc(F)ccc1F (stereo not given)	-5.2	8.9	0.0	-3.7	9.8	0.9	x	2.5
N#Cc1c(C(F)(F)F)cc(-c2ccc(Cl)c(Cl)c2)nc1SCCN1CCOCC1	-4.8	16.2	0.1	-7.0	41.7	-10.4	18.8	-13.3
COC(=O)c1cc(Nc2cc(C)nc3ncnn23)cc(C(=O)OC)c1	0.6	-12.9	-0.7	2.6	0.0	-3.2	-1.4	-0.1
COc1ccc(OC)c(-n2cnc3cc(C(=O)NCCCN4CCOCC4)ccc32)c1	-0.4	1.2	-0.2	-9.5	-14.8	-5.0	-4.9	-0.5
COc1ccc(CNC(=O)CN(Cc2ccc(OC)cc2)C(=O)CCC(=O)Nc2ccccn2)cc1	2.3	-1.9	0.7	-4.5	10.4	1.3	-2.8	2.3
NC(=O)CCSC(=S)N1CCOCC1	0.9	11.3	3.1	-14.0	-13.0	1.0	-4.1	7.1
Cc1ccccc1CN(C)CC(=O)Nc1ccccc1Oc1ccccc1	3.9	7.9	1.6	-8.3	36.9	-3.3	-3.9	0.2
Cc1nc2cc(-c3ccc(Br)cc3)[nH]n2c(=O)c1Cl	2.2	-1.2	-6.9	1.0	-10.6	-2.5	x	-0.3
COc1ccc(CNC(=O)C(NC(C)=O)C(=O)Nc2ccc(OC)cc2)cc1 (stereo not given)	x	8.2	1.5	-2.6	-2.2	-1.9	-2.0	4.0
COc1ccccc1NC(=O)c1cc2c(cc1Cl)N1CCCCCC1=NS2(=O)=O	-1.2	-2.4	0.3	x	x	-5.1	5.8	x
Cc1ccc(O)c(NC(=O)c2cc3nc4c(c(C(F)(F)F)n3n2)CCc2ccccc2-4)c1	3.8	12.0	1.5	-1.7	-5.5	1.2	-0.7	-1.7
COc1ccc(CNC(=O)c2cccs2)cc1	2.1	-5.9	-0.3	-14.5	-12.5	0.2	-4.1	-1.6
CCOC(=O)C1CCCc2c1[nH]c1ccc(Cl)cc21 (stereo not given)	6.7	-4.1	0.1	5.9	-13.0	2.0	x	-4.7
Cc1ccc(C(=O)NC2CCS(=O)(=O)C2)cc1S(=O)(=O)N1CCCC1 (stereo not given)	-3.2	0.8	0.3	-10.9	-4.4	-0.9	1.1	5.4
CC1CCCCC1NC(=O)c1cc(=O)[nH]c2ccccc12 (stereo not given)	-25.0	3.2	-0.1	2.7	3.6	-0.8	-3.7	-3.4
CC(=O)N1CCN(S(=O)(=O)c2cccc(C(=O)OCN3C(=O)c4ccccc4C3=O)c2)CC1	1.0	-1.7	0.8	-4.6	-11.0	3.6	-2.0	-2.3
O=C(CCN1CCc2ccccc21)c1ccc2c(c1)OCCO2	2.2	12.1	0.3	-23.0	35.7	2.8	25.2	u
O=C1c2ccccc2C(=O)N1CCCc1c[nH]c2ccc(Cl)cc12	1.2	10.7	0.3	11.5	25.2	-3.1	5.1	1.6
O=c1c2ccccc2c(C=NC2CCN(Cc3ccccc3)CC2)c(O)n1Cc1ccc2c(c1)OCO2	6.7	x	0.2	8.0	53.7	-0.9	2.2	-1.0

# The results go on.
smiles	UCH37 DUB inh	B2AR ag	Bfl-1 A1 inh	Calb FLC	T cruzi repl	LANA-H2B inh	Beta apoptosis	RanGTP-Imp inh
Cc1cc(C)c(NC(=O)C2CSCCS2)c(C)c1 (stereo not given)	4.9	0.4	1.9	-11.7	0.5	0.7	-0.7	-1.1
CC1(C)CC2CC(C)(CN2C(=O)COC(=O)c2ccc(NC(=O)CC#N)cc2)C1 (stereo not given)	1.3	0.2	-1.3	x	x	-1.9	-1.4	x
CN(C)S(=O)(=O)c1cccc(C(=O)Nc2ccccc2)c1	1.0	-4.2	0.4	-13.7	0.5	0.6	-7.6	u
S=C(NCCCc1ccccc1)Nc1ccc(Cl)cc1	-0.3	-11.9	-0.5	-43.5	-5.3	4.6	0.3	0.7
Cn1c(CNC(=O)C2CCC(=O)N(CCc3cccc(F)c3)C2)nc2ccccc21 (stereo not given)	-0.3	1.8	1.6	-0.8	-10.8	0.7	1.4	-0.8
Cc1ccc(/C(O)=C2\C(=O)C(=O)N(C)C2c2ccc(Br)cc2)cc1 (stereo not given)	5.2	-5.4	0.1	8.1	-7.4	1.7	-2.1	-2.7
O=C(Nc1ccc2sccc2c1)c1cccc(N2C(=O)CCC2=O)c1	3.6	-1.2	-1.7	2.0	-17.3	5.3	-0.2	1.1
O=C(Nc1ccc2c(c1)Cc1ccccc1-2)c1ccc(Br)o1	-1.0	4.0	-7.9	-5.7	4.5	0.7	-1.7	-5.1
CCC1(CC)NC(=O)N(CC(=O)Nc2ccc(C)cc2C)C1=O	1.0	7.2	0.7	x	x	-0.9	-0.7	x
CN1CC2(C(=O)c3ccccc3)CN(C)CC(C(=O)c3ccccc3)(C1)C2	-0.4	16.1	1.6	-31.2	-15.4	1.7	0.8	2.1
O=C(CCCOc1ccccc1)N1CCCc2ccccc21	2.2	1.3	0.5	34.8	3.4	-1.1	-6.8	8.7

# Screening results deposited in PubChem BioAssay by several laboratories.
